# 2A Renilla = FMDV 2A StopGo reporter, Renilla signal. HEK cells with a luciferase reporter of 2A StopGo recoding. Potency, µM (titrated, usually from 57.5 µM), without a hit: at the highest dose signal change, negative = less light. actives 0.32% (n = 120,000). AID 1745857; active means well fitted falling curve with a large enough effect; inconclusive means small, poorly fitted or top-dose-only effect; inactive means no such curve, though single readings can be large or run the other way; further: nearly all actives have a fitted effect of over 55% in size; overnight with compound
# 2A firefly = lowers the firefly signal of an FMDV 2A StopGo reporter. HEK cells with a luciferase reporter of 2A StopGo recoding. Potency, µM (series often up to 57.5 µM), for inactives: at the highest dose signal change, negative = less light. actives 0.23% (n = 120,000); active = well fitted falling curve with a large enough effect; inconclusive = small, poorly fitted or top-dose-only effect; inactive = no such curve, though single readings can be large or run the other way; further: nearly all actives have a fitted effect of over 60% in size; overnight with compound
# Active calls of the source: *; ? = inconclusive; [ ] = dose if it differs, or a comment. On the % scale 0 is the no-effect control and ±100 the full control effect; potency means the concentration at half of the fitted maximal effect. Some of the compounds tested (hit frequency here may not be typical).
SMILES,2A Renilla,2A firefly
Cc1cc2c(c(=O)o1)C1(C(=O)Nc3ccccc31)C(C(=O)OCc1ccccc1)=C(N)O2 (stereo not given),8%,-3%
Cc1cccc(-n2ncc(C(=O)Nc3ccc4c(c3)OCO4)c2C2CCN(C(=O)OC(C)(C)C)CC2)c1,-12%,40%
Cc1cccc(CCNC(=O)CCc2c(C)nc3c(-c4ccc(F)cc4)c(C)nn3c2C)c1,-12%,-14%
COc1cccc(/C=C/c2nc(C#N)c(N3CCC(C(N)=O)CC3)o2)c1,34%[activator],15%
Cc1cc(C)c2oc(C(=O)Nc3nnc(SCc4ccc(F)cc4)s3)cc(=O)c2c1,0%,10%
CC(=O)CNC(C)(C)C(C)=O,0%,26%
CCOC(=O)c1ccc(N2C(=O)c3n[nH]c(-c4cccs4)c3C2c2ccc(CC)cc2)cc1 (stereo not given),?,?
CCN(CC)CCN1C(=O)c2ccccc2NC1c1cccc(F)c1 (stereo not given),-20%,-13%
O=C(Nc1c(C(=O)Nc2cccc(C(F)(F)F)c2)oc2ccccc12)c1cc(=O)c2ccccc2o1,-5%,-11%
O=C1CSC(c2ccccc2OC2CCCC2)c2cn[nH]c2N1 (stereo not given),0%,-2%
N#CCc1ccc(NC(=O)CNc2ccccc2C(N)=O)cc1,13%,60%[activator]
C=CCNC(=O)CSc1ncc(-c2ccc(F)cc2)o1,6%,148%[activator]
NC(=S)N/N=C1\C2C3C(Br)C4C5CC(C1C53)C24 (stereo not given),3%,0%
CCc1cccc(-n2c(=O)c3cccnc3n2CC(=O)Nc2c(C)cc(C)cc2C)c1,-3%,-19%
FC(F)(F)c1ccc(Cl)c(N/N=C/c2ccccc2C(F)(F)F)c1,-14%,-10%
Cc1cc(=O)n2nc(N3CCC(C(=O)NCCCOC(C)C)CC3)sc2n1,-11%,-19%
CCC(=O)N1CCc2cc(Br)cc(S(=O)(=O)CCC(=O)NCCc3ccccc3Cl)c21,21%,-23%
CC(C)CCSc1nnc2n(-c3ccccc3)c(=O)c3c4c(sc3n12)CC(C)CC4 (stereo not given),-16%,0%
NC(=O)c1ccc(NC(=O)CSc2ccc3ccccc3n2)cc1,46%[activator],85%[activator]
Cn1nc(C(=O)NCc2ccccc2Cl)c2c1-c1ccccc1S(=O)(=O)C2,0%,5%
COC(=O)c1ccccc1NC(=O)NCc1ccc2c(c1)CCN2C(=O)c1ccccc1,125%[activator],-26%
CC(=O)NCc1ccc(-c2csc(Nc3ccc(Cl)cc3)n2)s1,-19%,112%[activator]
CC(C)C(=O)N1CCN(C(=O)Cn2cnc3sccc3c2=O)CC1,-12%,-11%
COCCn1c(SCC(=O)Nc2cccc(C)c2C)nc2c(oc3ccccc32)c1=O,-5%,-15%
Cc1nc(C)c(-c2ccc(SCC(=O)Nc3ccc(Cl)c(Cl)c3)nn2)s1,?,?
CCOC(=O)Cn1nc(C)c(NC(=O)COc2ccccc2)c1C,11%,17%
COc1ccc2c(=O)c(Oc3cccc(C)c3)c(C(F)(F)F)oc2c1,9%,158%[activator]
COC(=O)c1c(NC(=O)CSc2ncnc3ccccc23)sc2c1CCCCC2,-12%,0%
CC(C)CNc1oc(-c2ccccc2Cl)nc1C#N,135%[activator],93%[activator]
O=C1CSc2ccc(S(=O)(=O)CCC(=O)N(CCc3ccccc3)Cc3ccccc3)cc2N1,-26%,?
O=C(NCC1CCCO1)c1c[nH]c2ccc(S(=O)(=O)Nc3cccc(C(F)(F)F)c3)cc2c1=O (stereo not given),49%[activator],-19%
CCNC(=O)Cc1ccc(NC(=O)N2CCCCc3ccccc32)cc1,-3%,-8%
CCc1ccc(S(=O)(=O)c2nnn3c2nc(NC2CCCCCC2)c2sccc23)cc1,44%[activator],-23%
COc1ccc(CC(=O)c2ccc(O)c(C)c2O)cc1,-9%,97%[activator]
Cc1ccccc1-c1cc(=O)c2cc(NC(=O)c3cccs3)ccc2o1,29%,131%[activator]
CCOc1ccccc1NC(=O)C(c1ccccc1)N1Cc2ccccc2C1=O (stereo not given),299%[activator],-11%
Cn1c(=O)c2c(nc(SCCCO)n2Cc2cccc3ccccc23)n(C)c1=O,-11%,-5%
CC1CCN(C(=O)c2ccc3c(c2)N(Cc2ccccc2)C(=O)c2ccccc2S3(=O)=O)CC1,123%[activator],0%
O=C1CC(N2CCC(c3nc4ccccc4o3)CC2)C(=O)N1c1cc(Cl)cc(Cl)c1 (stereo not given),-1%,-14%
Clc1cccc(-c2ccc(CNCCSc3nnnn3-c3ccccc3)o2)c1,-2%,4%
CC(C)(O)CCC(O)[C@](C)(O)C1CC[C@@]2(O)C3=C/C(=N\O)[C@@H]4C[C@@H](O)[C@@H](O)C[C@]4(C)C3CC[C@]12C (stereo not given in full),5%,4%
Cc1ccc(-c2cc(C(=O)N3CCCC(C(F)(F)F)C3)c3ccccc3n2)o1 (stereo not given),6%,0%
COc1ccc2[nH]cc(CCNC(=O)c3ccc(F)cc3F)c2c1,0%,0%
CCCCN(C)Cc1ccccc1OCC,22%,0%
CCOC(=O)c1ccccc1NC(=O)CSc1ncnc2c(-c3ccccc3)c[nH]c12,?,2%
O=C1CC(/C=C/c2ccccc2)Cc2nc(N3CCCCC3)ncc21 (stereo not given),-1%,4%
Cn1cc(S(=O)(=O)N2CCCCC2)cc1C(=O)Nc1ccc(OC(F)(F)F)cc1,-1%,-19%
CSc1ccc(CCNC(=O)c2ccc(NC(=O)N3CCSc4nc(C)cc(C)c43)cc2)cc1,6%,19%
COc1ccc(-c2c3c(nc4sc(C(=O)Nc5ccccc5F)c(N)c24)CC(C)(C)CC3=O)cc1,9%,14%
COc1ccccc1CN(CCCO)CC(C#N)CCC#N (stereo not given),15%,13%
COc1ccc(CCNC(=O)c2cc(S(=O)(=O)N3CCCC(C)C3)cn2C)cc1OC (stereo not given),21%,1%
Cc1nc(N2CCS(=O)CC2)c2cc(-c3ccccc3)sc2n1,49%[activator],152%[activator]
Nc1ccc(C(=O)O)cc1,-4%,-14%[11.5 µM]
CCc1ccc2oc(-c3cccc(NC(=O)COc4ccccc4Cl)c3)nc2c1,-6%,27%
Cc1c(NC(=O)c2c(Cl)cnn2C)cnn1C,-11%,5%
COc1ccc(-c2nc(SCC(=O)NC(C)CCc3ccccc3)n[nH]2)cc1 (stereo not given),?,?
COC(=O)c1ccc(NC(=O)NC(C)c2c(-n3cccc3)sc(C)c2C)cc1 (stereo not given),2%,2%
Cc1cc2oc(C(=O)Nc3cccc(Cl)c3C)cc(=O)c2cc1C,-7%,-1%
Cc1cc(C)cc(NC(=O)C(=O)NCC(c2cccnc2)N2CCc3ccccc32)c1 (stereo not given),1%,-11%
CCOC(=O)c1c(C)oc2ncnc(Nc3ccc(CC)cc3)c12,-9%,-22%

# 2 records drawn at random from the list so far, as already listed:
SMILES,2A Renilla,2A firefly
Cc1nc(N2CCS(=O)CC2)c2cc(-c3ccccc3)sc2n1,49%[activator],152%[activator]
Cc1ccc(-c2cc(C(=O)N3CCCC(C(F)(F)F)C3)c3ccccc3n2)o1 (stereo not given),6%,0%

# By substructure: those above with a furan ring, fused or not.
SMILES,2A Renilla,2A firefly
O=C(Nc1c(C(=O)Nc2cccc(C(F)(F)F)c2)oc2ccccc12)c1cc(=O)c2ccccc2o1,-5%,-11%
COCCn1c(SCC(=O)Nc2cccc(C)c2C)nc2c(oc3ccccc32)c1=O,-5%,-15%
Clc1cccc(-c2ccc(CNCCSc3nnnn3-c3ccccc3)o2)c1,-2%,4%
Cc1ccc(-c2cc(C(=O)N3CCCC(C(F)(F)F)C3)c3ccccc3n2)o1 (stereo not given),6%,0%
CCOC(=O)c1c(C)oc2ncnc(Nc3ccc(CC)cc3)c12,-9%,-22%

# Later entries.
SMILES,2A Renilla,2A firefly
CC1Cc2cc(S(=O)(=O)N(Cc3ccccc3)C(C)C)ccc2N1C(=O)C1CCC1 (stereo not given),?,?
Cc1cc(NC(=O)CCN2CCN(Cc3cccc4ccccc34)CC2)ccc1Br,?,?
COc1ccc(CCNC(=O)C2c3ccccc3C(=O)N2Cc2ccccc2)cc1OC (stereo not given),25%,-14%
Clc1cc(CNCCc2cccs2)cc2c1OCCCO2,-2%,0%
Cc1sc2nc(SCc3ccc(F)cc3Cl)n(CCCN3CCOCC3)c(=O)c2c1C,-10%,6%
Cc1cccc(Oc2coc3cc(OCc4ccccc4)ccc3c2=O)c1,-3%,36%[activator]
C=CCOc1ccc(/C=C/c2cc(C(=O)O)c3ccccc3n2)cc1OC,6%,34%[activator]
O=C(COc1ccc(Br)cc1)NCc1ccc(-c2nn3cnnc3s2)cc1,5%,17%
CC(=O)c1cccc(NC(=O)CSc2nc3ccccc3nc2Cc2ccc(F)cc2)c1,-15%,-23%
Cc1ccnc(Nc2nc(C)c3cccc(C)c3n2)n1,18%,19%
COc1cc(C(=O)Nc2oc3ccccc3c(=O)c2-c2ccc3c(c2)OCO3)cc(OC)c1OC,5%,23%
CC(C(=O)N(C)CC(=O)Nc1ccccc1C(F)(F)F)N(C)Cc1ccccc1Br (stereo not given),7%,-9%
Cc1ccc(NC(=O)c2ccc(=O)n(CC(=O)Nc3c(C)cc(C)cc3C)n2)cc1,-5%,-5%
c1ccc2c(NC3C4CC5CC(C4)CC3C5)nc(N3CCCCC3)nc2c1 (stereo not given),0%,2%
O=C(NCC1CC2c3ccccc3C1c1ccccc12)c1ccc[n+]([O-])c1 (stereo not given),30%[activator],14%
CC(=O)c1cccc(NC(=O)CC(C)(C(=O)O)c2ccccc2)c1 (stereo not given),-1%,2%
Cc1ccc2c(c1)c1c(c(=O)n(-c3cccc(Cl)c3)c(=O)n1CC(=O)Nc1c(C)cccc1C)n2C,-5%,-19%
CSc1ccc(/C=C/C(=O)Nc2ccccc2Cc2ccccc2)cc1,-2%,38%[activator]
CC(C)C(C)NC(=O)CCn1cnc2c1c(=O)n(C)c(=O)n2C (stereo not given),10%,15%
CC(C)NC(=O)NC(=O)CSc1nc2ccccc2c(=O)n1C1CC1,-7%,-2%

# Whole records, looked up by structure. Screens in order: 2A Renilla, 2A firefly
# CSc1ccc(/C=C/C(=O)Nc2ccccc2Cc2ccccc2)cc1 in the list: -2%, 38%[activator]
# CC(C(=O)N(C)CC(=O)Nc1ccccc1C(F)(F)F)N(C)Cc1ccccc1Br (stereo not given) in the list: 7%, -9%

# The listing continues.
SMILES,2A Renilla,2A firefly
CC(=O)NC(Cc1c[nH]c2ccccc12)C(=O)N1CCC1 (stereo not given),-2%,3%
Cc1ccc2c(-c3oc4ccccc4c3NC(=O)C3CC3)cc(=O)oc2c1C,74%[activator],28%
Cc1nn(C)c2nc(OC(C)C(=O)Nc3ccccc3F)cc(-c3ccccc3)c12 (stereo not given),-6%,4%
CCc1cccc2c(-c3ccc(F)cc3)nc(SCC(=O)Nc3ccccc3)nc12,-6%,-14%
CCCOC(=O)c1ccc(NC(=O)Cn2nnc3sc4c(c3c2=O)CCC(C(C)(C)C)C4)cc1 (stereo not given),-6%,-5%
COC(=O)c1c(-c2cccs2)csc1NC(=O)c1cccc(Cl)c1,-15%,87%[activator]
Cc1c(NC(=O)c2nc3ccccc3n(C)c2=O)cccc1[N+](=O)[O-],-3%,2%
COc1ccccc1/C=C/C=C1\Oc2cc(OS(=O)(=O)c3ccccc3)ccc2C1=O,18%,65%[activator]
NC(N)=NN=C1CCC(c2ccccc2)CC1 (stereo not given),6%,15%
CCOCCCNC(=O)CN1C(=O)COc2ccc(S(=O)(=O)N3CCCCCC3)cc21,37%[activator],8%
COc1ccc(NC(=O)Cc2nc(-c3ccccc3)oc2C)cc1OC,-27%,-24%
CC1CCN(c2ccc(-c3nc(C(C)C)no3)cc2[N+](=O)[O-])CC1,-3%,65%[activator]
Cc1ccc(NC(=O)N2CCC(n3c(C)nc4cccnc43)CC2)c(Cl)c1,-16%,-19%
N#Cc1ccc(Cc2cnc(NC(=O)c3ccccc3)s2)c(C(F)(F)F)c1,-6%,9%
C=CCN(Cc1cccs1)C(=O)COC,0%,23%
Cc1ccc(-n2c(=O)c3sccc3n(Cc3cc(=O)n4ccccc4n3)c2=O)cc1,47%[activator],42%[activator]
COc1ccc(CCC(=O)N2CCc3c([nH]c4ccccc34)C2c2ccc(F)cc2)cc1 (stereo not given),?,?
CCn1cc(S(=O)(=O)N2CCN(c3ccc(C(C)=O)cc3)CC2)cn1,-6%,-8%
N#Cc1nc(-c2ccccc2F)oc1N1CCCCCC1,66%[activator],106%[activator]
CCn1nc(C(=O)N2CC(C(N)=O)Oc3ccccc32)c2ccccc2c1=O (stereo not given),-1%,9%

# Screening data: PubChem BioAssay, National Center for Advancing Translational Sciences (NCATS)
